Source: PubChem BioAssay (National Center for Advancing Translational Sciences (NCATS))
D2 ag – activates the human D2 dopamine receptor. P14416. 360,000 tested, 0.084% active. activation, % (test concentration not listed). DiscoveRx PathHunter D2 beta-arrestin, luminescence, 90 min; 100% = 57 uM dopamine signal. AID 624465; in the data active = activation above about 40%; inconclusive = about 15% to 40%; inactive = below about 15%; note: compound concentration not given in the record; the text of the record calls up to 30% inactive
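DiscoveRx PathHunter D2 beta-arrestin cells (2,100/well) attached overnight, then compound-stimulated 90 min at 37 C in HBSS/10 mM HEPES/0.1% Tween-20 buffer; beta-galactosidase complementation read by luminescence after 1 h at ambient temperature. Dopamine 57 uM final (EC100) as control.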
TRPML1 ag – agonists of human TRPML1 channel; Q9GZU1; TRPML1-expressing cells, Ca2+ dye fluorescence, FDSS; host cell line not named in the record; reference of the full effect not given here; activation, % (concentration not given with the values); 410,000 tested, 0.12% active; AID 624414; in the data active = activation above about 50%; inconclusive = about 30% to 50%; inactive = below about 30%; note: 0% is about no effect; the text of the record puts the active cut at 80%
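Tetracycline-induced TRPML1-DL cells are seeded and incubated overnight before loading with a no-wash Ca2+ dye and quencher. Agonist activity is taken from the 110 s fluorescence read following compound pin-transfer on an FDSS, before EC80 54-4 challenge.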
TRPML1 blocker – human mucolipin-1 channel inhibition. activity change, negative = inhibition, % (concentration not given with the values). 390,000 tested, 0.02% active. TRPML1-inducible cells, Ca2+ dye fluorescence, FDSS; hits give low values; inhibition of EC80 agonist-evoked calcium signal. Q9GZU1; in the data active means activity change below about -50%; inconclusive means about -30% to -50%; inactive means above about -30%;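 note: stimulus is agonist 54-4 at its EC80 concentration; % is set by controls: 0 for no effect and ±100 for the full control effect; compound concentration not given in the record; the text of the record puts the active cut at -80%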
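TRPML1-DL cells, Tet-induced overnight (~16 h, 37 °C) at 1,500 cells/well, were loaded with Ca8 no-wash dye plus quencher for 45-90 min at room temperature. Compounds were pinned during FDSS kinetic reading; agonist 54-4 at EC80 (4 uM final) then added.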
CtBP-E1A inh – blocks the CtBP interaction with E1A; AlphaScreen GST-E1A/His-CtBP binding, 1536-well; hits give low values; control for the full effect not named in the record; activity change, % (test concentration not listed); 340,000 tested, 0.49% active; AID 651724; in the data active means activity change below about -65%; inconclusive means about -30% to -65%; inactive means above about -30%; note: % is set by controls: 0 for no effect and ±100 for the full control effect; compound concentration not given in the record
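Homogeneous bead-based format: GST-tagged E1A captured on glutathione donor beads, His-tagged CtBP on nickel acceptor beads; compounds precede bead addition by 2 h at 37 °C.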
PINK1 expr mod – changes PINK1 expression; PINK1 immunofluorescence, high-content cytometry, 24 h; Potency, µM (top dose mostly 76.6 µM), inactives show top-dose activation (PINK1 increase), actives largely listed as activators; 410,000 tested, 0.2% active; AID 624263; active = well fitted activation curve with a large enough effect; inconclusive = small, poorly fitted or top-dose-only effect; inactive = flat fitted curve, though single readings scatter; cell line not stated here;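 note: potency is the fitted concentration of half-maximal effect; % of control where 0% means no effect; nearly all actives have a fitted effect of over 65% in size; a mitochondrial uncoupler was the plate control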
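Decision-based qHTS: stable cells, 24 h exposure to five compound concentrations, CCCP as control. Fixed cells stained for PINK1 plus nuclear, mitochondrial and cell markers, cytometer read.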
Six1-Eya2 blk – Six1/Eya2 interaction inhibition. 360,000 tested, 0.56% active. Q15475+O00167. activity change, % (no concentration beside the values). AlphaScreen GST-Six1/His-Eya2 binding, biochemical; hits give low values; control for the full effect not named in the record; in the data active = activity change below about -65%; inconclusive = about -30% to -65%; inactive = above about -30%; note: % is set by controls: 0 for no effect and ±100 for the full control effect; compound concentration not given in the record
Target sequence (O00167 whole entry, looked up): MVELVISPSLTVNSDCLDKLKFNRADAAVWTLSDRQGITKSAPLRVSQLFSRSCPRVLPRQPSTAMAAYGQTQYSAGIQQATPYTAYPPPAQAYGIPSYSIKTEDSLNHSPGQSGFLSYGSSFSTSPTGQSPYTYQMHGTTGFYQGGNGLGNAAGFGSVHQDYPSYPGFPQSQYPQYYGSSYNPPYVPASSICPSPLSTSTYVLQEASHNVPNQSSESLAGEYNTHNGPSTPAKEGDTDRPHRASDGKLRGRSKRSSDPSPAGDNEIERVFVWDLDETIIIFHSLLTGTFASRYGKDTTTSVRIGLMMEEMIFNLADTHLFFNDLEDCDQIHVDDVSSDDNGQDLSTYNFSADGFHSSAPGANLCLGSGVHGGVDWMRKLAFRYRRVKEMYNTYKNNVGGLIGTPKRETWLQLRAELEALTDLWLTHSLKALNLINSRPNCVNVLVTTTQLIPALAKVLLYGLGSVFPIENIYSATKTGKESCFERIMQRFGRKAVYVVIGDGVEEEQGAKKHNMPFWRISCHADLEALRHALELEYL
Target sequence (Q15475 whole entry, looked up): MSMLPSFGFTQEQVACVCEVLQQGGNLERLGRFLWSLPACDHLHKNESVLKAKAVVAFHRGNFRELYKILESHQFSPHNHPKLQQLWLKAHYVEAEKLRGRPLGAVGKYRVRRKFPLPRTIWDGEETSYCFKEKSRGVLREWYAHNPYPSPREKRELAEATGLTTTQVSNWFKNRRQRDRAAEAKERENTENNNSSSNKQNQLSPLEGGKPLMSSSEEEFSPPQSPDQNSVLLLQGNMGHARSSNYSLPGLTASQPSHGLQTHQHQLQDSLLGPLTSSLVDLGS
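AlphaScreen with GST-Six1 and His-Eya2 (5X mix: 250 nM and 500 nM), glutathione donor and nickel acceptor beads; buffer 50 mM Tris pH 8.0, 300 mM NaCl, 1 mM TCEP; 1 h at 37 C in the dark.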
Starred values were filed as active, the others as inactive; ? = inconclusive; nt = not tested or not shown; & = joins results of further samples; [ ] = remark or other dose.

Structure	PINK1 expr mod	TRPML1 ag	Six1-Eya2 blk	CtBP-E1A inh	D2 ag	TRPML1 blocker
COCc1ccc(C(=O)N2CCCC(Nc3ccc(C(C)C)cc3)C2)o1 (configuration not stated)	-0.4%	0.5	-13	-3	-6.9	2
CCOC(=O)N1CCN(c2cc(N)c([N+](=O)[O-])cc2F)CC1	-8.0%[38.3 µM]	0.6	-7	-9	0.6	13
COC(=O)c1ccc(NC(=S)Nc2ccccc2)cc1	-0.3%[38.3 µM]	0.0	2	14	-0.5	4
OC(c1ccccc1)C(O)C(c1ccccc1)N1CCCCC1 (configuration not stated)	0.2%	-0.5	6	1	-1.3	-1
CCCCSc1nc(SCC(=O)NCc2ccco2)c2c3c(sc2n1)COC(C)(CC)C3 (configuration not stated)	nt	0.2	-8	-9	0.4	-2
COc1cc(NS(=O)(=O)c2ccc(NC(=S)NC(=O)/C=C/c3ccc(F)cc3)cc2)ncn1	0.4%	0.2	-2	-13	-2.8	-11
CCCCN(C)CCNC(=O)c1ccc(Cn2c(=S)[nH]c3ccc(Br)cc3c2=O)cc1	-0.7%	-0.1	?	?	-3.2	-11
Cc1ccc(NC(=O)CSc2nnc3[nH]c(=O)cc(C)n23)cc1Cl	-6.2%	0.4	nt	nt	nt	19
COc1ccc(S(=O)(=O)N2CCCCCC2)cc1C(=O)N(C)CC(=O)Nc1ccc(F)cc1	3.9%	-0.7	2	0	-3.0	-5
O=C(O/N=C(\c1ccccc1)c1ccccn1)c1ccc(Cl)c(Cl)c1	-3.0%	5.0	-13	-16	3.1	36
NC(=O)[C@H]1CC2(CC(c3cccc(NC(=O)[C@H]4CCC(=O)N4)c3)=NO2)CN1C(=O)CC(c1ccccc1)c1ccccc1 (some centres not stated)	0.3%	0.6	0	nt	-5.5	34
Cc1c(C(=O)N(C)CCCCN2CCOCC2)oc2c(F)cccc12	2.3%	-0.5	4	3	4.9	-7
Cc1cc(Cl)c(O)c(-n2nc3ccccc3n2)c1	9.8%	nt	5	-1	-3.0	nt
Cc1ccccc1OCC(=O)Nc1ccccc1C(=O)OCc1cc(=O)n2c(C)csc2n1	0.5%	4.5	nt	nt	nt	27
CCOc1cc(S(=O)(=O)N2CCC(C(N)=O)CC2)ccc1F	4.7%[38.3 µM]	-0.1	1	3	0.6	-1
CCN(CC)c1ccc(C2C(C(=O)OC(C)C)C(=O)CC(C)(O)C2C(=O)OC(C)C)cc1 (configuration not stated)	3.5%	0.7	-9	1	-5.6	-2
Cc1ccc(CNC(=O)CN(c2cccc(C)c2C)S(=O)(=O)c2ccccc2)cc1	-0.7%	3.0	nt	nt	nt	64
COc1cccc(N2CCN(C(=O)CN(c3cc(C)cc(C)c3)S(=O)(=O)c3c(C)noc3C)CC2)c1	0.3%	3.9	-18	nt	-2.0	2
CCOc1ccccc1Nc1ncnc2c1c(-c1ccccc1)cn2-c1ccc(OC)cc1	2.5%	-0.1	nt	nt	nt	22
COc1ccc(/C=C/C(=O)NCC2COc3ccccc3O2)cc1OC (configuration not stated)	2.1%	-0.3	1	0	-1.0	25

An excerpt from above in order of the Six1-Eya2 blk value, smallest number first:
SMILES,Six1-Eya2 blk
O=C(O/N=C(\c1ccccc1)c1ccccn1)c1ccc(Cl)c(Cl)c1,-13
CCN(CC)c1ccc(C2C(C(=O)OC(C)C)C(=O)CC(C)(O)C2C(=O)OC(C)C)cc1 (configuration not stated),-9
COc1ccc(S(=O)(=O)N2CCCCCC2)cc1C(=O)N(C)CC(=O)Nc1ccc(F)cc1,2

Next structures follow:
Structure	PINK1 expr mod	TRPML1 ag	Six1-Eya2 blk	CtBP-E1A inh	D2 ag	TRPML1 blocker
COCCCNC(=O)c1nn(-c2ccc(C)cc2)c(=O)n(C)c1=O	2.4%	-0.7	nt	nt	nt	15
O=c1nc(Nc2cccc(Cl)c2)oc2cc(Cl)oc(=O)c12	0.4%	0.4	-6	nt	-6.5	0
CCCn1c(N)c(N(CCOC)C(=O)c2ccc(C#N)cc2)c(=O)[nH]c1=O	0.9%	-0.1	2	0	-3.4	-14
COC(=O)c1ccc(/C=C/C(=O)O)cc1	-0.7%	-0.1	0	nt	-4.4	6
COc1ccc(S(=O)(=O)N2CCc3ccccc32)cc1C(=O)NC1(C)CCS(=O)(=O)C1 (configuration not stated)	0.4%	2.0	5	-19	-3.8	-2
COc1ccc(/C=N/NC(=O)CCCOc2ccc(Cl)cc2Cl)cc1	2.9%	2.4	7	11	3.4	4
Nc1nnnn1/N=C/c1ccccc1O	-1.2%	-0.3	?	-9	-3.0	18
O=C(COc1ccc(S(=O)(=O)N2CCCCC2)cc1)NCc1ccccn1	-0.9%	-0.4	-7	0	-6.5	8
Cc1ccc2[nH]c(=O)c(C(c3nnnn3C3CCCC3)N3CCCc4ccccc43)cc2c1 (configuration not stated)	5.4%	2.5	?	?	-4.8	2
CCOc1c(Br)cc(/C=C(\C#N)C(=O)NC2CC2)cc1OC	2.7%	0.9	0	1	-2.0	5
CC[n+]1cc(-c2ccccc2)nc(N2CCOCC2)n1	0.4%[38.3 µM]	-0.6	4	18	-0.7	5
CN(CC(=O)Nc1c(Cl)cccc1Cl)C(=O)CNC(=O)C1CCCCC1	3.9%	0.4	24	-14	-2.3	-6
O=C(Cc1n[nH]c(=O)c2ccccc12)OCC(=O)c1ccc(F)cc1	1.2%	0.2	-2	2	0.3	11
O=P(c1ccccc1)(c1ccccc1)c1cc(S(=O)(=O)O)ccc1O	4.3%	-0.4	-15	7	-6.7	-12
O=C(/C=C/c1ccco1)Nc1ccccc1N1CCOCC1	1.8%	1.8	0	7	6.5	12
COc1ccc([N+](=O)[O-])cc1NC(=O)CSCc1cc(C)cc(C)c1	1.1%	4.4	-10	-23	-7.7	26
CC1C(c2ccccc2)=[N+]([O-])C2(CCCCC2)N1O (configuration not stated)	-0.3%	0.4	10	4	1.2	2
O=C(CCN1CCOCC1)N1c2ccccc2Sc2ccc(Cl)cc21	2.0%	-0.2	-9	nt	-4.9	-5
C=CCNC(=O)C(=O)NCC(c1ccc2c(c1)OCO2)N1CCN(c2ccc(F)cc2)CC1 (configuration not stated)	-1.5%	-0.6	-10	-6	-0.6	-6
CC(=O)c1ccc(N2CCN(c3ncccn3)CC2)cc1	0.6%	0.1	7	0	-1.5	8
C/C(=C\c1ccc(F)cc1)C(=O)c1c(C)cc(C)[nH]c1=O	-1.1%	0.7	7	nt	-1.2	-13
CCOC(=O)CN1C(=O)C(O)(CC(=O)c2ccccn2)c2ccccc21 (configuration not stated)	7.9%	-1.1	3	-1	-13	0
COc1cccc(CN(C)C(=O)c2ccccc2SCC(=O)N2CCCC2)c1	-1.1%	-0.6	0	-1	-5.0	4
CN(C)Cc1ccccc1CCc1ccccc1	2.0%	0.7	0	0	-2.0	-21
Nc1[nH]n2c(=O)c3c(nc2c1N=Nc1ccc(Cl)cc1)CCCC3	2.7%	2.3	-26	-18	-2.3	-16
CCOC(=O)N1CCC(N2C(=O)c3ccc(C(=O)NCCOC)cc3C2=O)CC1	1.3%	nt	14	11	-5.9	nt
CCOc1ccc(C2C(C(=O)Nc3ccccc3OC)=C(C)Nc3c(C(=O)Nc4cccc(C)c4)cnn32)cc1 (configuration not stated)	7.7%	1.9	nt	nt	nt	10
O=c1sc2ccccc2n1Cc1ccccc1	1.2%	0.7	8	18	2.3	8
C=CCn1c(=O)c2c(nc3n2CCS3)n(C)c1=O	10%[38.3 µM]	0.7	1	-3	-0.9	21
O=C(c1ccc(F)cc1)N1CCN(S(=O)(=O)c2ccc3c(c2)OCCO3)CC1	1.5%	-0.2	6	-19	-1.1	31
CCc1c(C)nc(SCc2cccnc2)[nH]c1=O	-0.1%	0.7	10	nt	3.2	13
CCc1nn(CC(=O)N2CCN(c3ccc(F)cc3)CC2)c(=O)c2cc3occc3n12	-0.6%	-0.8	1	0	-5.1	9
O=C(NCCc1ccccc1)C1CCC(CNc2nc(=S)[nH]c3ccccc23)CC1 (configuration not stated)	7.0%	0.3	-6	-15	-0.3	5
COc1cc(CN2CCCCCC2)cc([N+](=O)[O-])c1O	-0.1%	-0.8	6	nt	-4.1	18
C/C(=N\NC(=O)CNc1ccccc1Cl)C(C)(C)C	-0.6%	-0.1	-1	2	1.0	-17
O=C(Nn1c(C2CCCCC2)nc2ccccc2c1=O)c1cc(Cl)ccc1[N+](=O)[O-]	1.9%	-0.3	-4	5	2.8	-11
Cc1ccc(Cn2nc3c4cc(F)ccc4n(Cc4ccc(F)cc4)cc-3c2=O)cc1	-0.7%	0.4	2	2	2.0	-12
COc1cccc(NC(=O)COC(=O)c2c(C)noc2C)c1	0.7%	-0.8	-2	nt	1.1	-3
Cc1ccc(CSC2=NCCN2C(=O)C2CC2)cc1	0.3%	-0.8	6	3	-2.5	-5
CCOC(=O)c1ccc(NC(=O)c2cccc(S(=O)(=O)N3CCOCC3)c2)cc1	-1.8%	1.2	-8	-3	6.0	9
COc1cc(-c2nnc(SCc3ccccc3Cl)o2)cc(OC)c1OC	9.7%	3.1	8	1	-2.4	26
O=C(Cn1nc2c(cc1=O)CCCC2)Nc1ccccc1C(F)(F)F	-1.0%	-0.6	nt	nt	nt	17
O=C(c1cccs1)N(Cc1cccnc1)c1nc2c(F)cc(F)cc2s1	-0.6%	1.7	nt	nt	nt	42
O=C(/C=C/c1ccccc1)Nc1cccc(C(=O)N2CCCC2)c1	0.6%	-0.5	1	0	6.1	31
O=C(Nc1ccccc1)C1=C[C@H](c2ccc(C(F)(F)F)cc2)C[C@H](OCc2ccc(CO)cc2)O1	4.0%	-0.3	-9	-4	-0.4	2
CCc1ccc(-n2nc3cc(C)c(NC(=O)c4cc(Cl)ccc4OC)cc3n2)cc1	0.6%	0.4	nt	nt	nt	4
CNC(=O)c1sccc1SCc1c(Cl)cccc1Cl	-1.4%	4.9	-3	2	-5.2	8
CC(=O)Nc1ccc(S(=O)(=O)N2CCC(Oc3ccc(-n4cnnn4)cc3)CC2)cc1	2.8%&1.9%	0.1&1.3	-6	-8	6.1	-8&6
Cc1ccc(S(=O)(=O)N(CC(=O)N2CCC(C)CC2)Cc2ccccc2F)cc1	0.4%[38.3 µM]	19	7	12	-1.4	0

Two compounds drawn at random from the list so far, as already listed:
Structure	PINK1 expr mod	TRPML1 ag	Six1-Eya2 blk	CtBP-E1A inh	D2 ag	TRPML1 blocker
CCc1ccc(-n2nc3cc(C)c(NC(=O)c4cc(Cl)ccc4OC)cc3n2)cc1	0.6%	0.4	nt	nt	nt	4
O=C(Cn1nc2c(cc1=O)CCCC2)Nc1ccccc1C(F)(F)F	-1.0%	-0.6	nt	nt	nt	17
